MT1-MMP act inh = blockers of MT1-MMP proenzyme processing, primary screen, HT1080 RFP-PRO-GFP cells, GFP/RFP fluorescence. Matrix metalloproteinase-14 (Homo sapiens), P50281. GFP/RFP ratio fluorescence, overnight; percent of plate control window, DMSO zero. GFP/RFP ratio change, % at 20 µM. hit rate 0.061% among 360,000. AID 651647, 2012;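 active = GFP/RFP ratio change of at least 30% with cell ATP level not reduced by more than half and red fluorescence within 50% of control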; note: strong numbers were not always called active
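Compound: 20 µM single dose, 1% DMSO / System: HT1080 RFP-PRO-GFP cells / Controls: DMSO and RFP-L50D-GFP cell wells / Read-out basis: GFP/RFP fluorescence ratio / Schedule: overnight compound exposure at 37 °C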
UUG fidelity = modulators of yeast start codon fidelity, primary screen, whole organism, S. cerevisiae, single point, plate reader. hit rate 0.13% among 350,000. S. cerevisiae UUG-firefly luciferase reporter, luminescence/redox ratio. activity score, % at 18.7 µM. AID 602363, 2012;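 active = replicate mean at a twofold rise or more, about +100% in these data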;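 note: firefly luciferase made from a UUG start codon reports start codon fidelity; reporter light over untreated wells divided by growth signal over untreated wells; some hits fall short of that in this replicate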
CSC inhib = cancer stem cell viability inhibitors, primary screen, luminescence; cancer stem cell-like cells viability; inhibition, % at 7.5 µM; hit rate 1.1% among 300,000;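 active = mean at 75% or more and at least half the replicates too; inconclusive = mean and replicates disagree; tested in HMLE shEcad cells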;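 note: 0% = median of negative and 100% = median of positive control wells; the first replicate is given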
Rce1 inhib = yeast Rce1p protease inhibitors, primary screen, biochemical, fluorescence, cell-free homogeneous; CAAX prenyl protease 2 (Saccharomyces cerevisiae (strain ATCC 204508 / S288c)), Q03530; hit rate 0.27% among 290,000; calls only; yeast membranes, quenched prenylated peptide cleavage fluorescence;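 active = fall in fluorescence gain of 50% or more versus controls, with final raw signal at or below 3038400; inconclusive = same 50% fall but final raw signal above 3038400; inactive = fall in fluorescence gain under 50%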;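 note: plate controls were neutral control wells for no effect and wells lacking membranes for full effect; tested at 10 µM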
Target sequence (Q03530 whole entry, looked up): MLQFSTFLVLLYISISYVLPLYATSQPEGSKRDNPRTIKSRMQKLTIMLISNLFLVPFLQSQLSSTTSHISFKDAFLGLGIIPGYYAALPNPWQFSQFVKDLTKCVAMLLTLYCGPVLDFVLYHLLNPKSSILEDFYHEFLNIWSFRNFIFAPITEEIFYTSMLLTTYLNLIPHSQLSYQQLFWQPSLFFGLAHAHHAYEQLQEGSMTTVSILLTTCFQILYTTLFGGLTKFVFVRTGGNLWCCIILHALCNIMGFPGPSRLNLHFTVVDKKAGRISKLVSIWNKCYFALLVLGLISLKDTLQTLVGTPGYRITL
HIV Env fusion = inhibitors of HIV-1 Env-driven cell-cell fusion, primary screen, HeLa-JRFL effector, CEM21 target cells, luciferase; inhibition, % at 12.3 µM; hit rate 1.1% among 360,000; AID 651610, 2012;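 active = mean replicate inhibition score of at least 50 and every replicate individually at or above 50; inconclusive = only one of the two criteria met; inactive = mean below 50 and not all replicates reaching 50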;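 note: 0% = plate neutral controls and 100% = maraviroc near 300 nM; one replicate is shown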
PABP FP inh = PABP poly(A) RNA binding inhibitors, primary screen, biochemical, fluorescence polarization, uHTS. inhibition, % at 35 µM. AID 2014, 2009. hit rate 1% among 290,000;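 active = 50% or more with normal probe brightness, or confirmed in later tests; inconclusive = above 50% with abnormal brightness, or retests that disagree; inactive = below 50% or failed in later tests; about a fifth of its hits are not listed in these tables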;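 note: calls also rest on retests at 20 µM and on dose response follow-up; controls were probe without protein and protein plus probe with vehicle; some compounds called inactive have numbers as strong as hits; many hits fall short of the cut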
eIF4H FP inh = human eIF4H binding inhibitors, primary screen, translation initiation inhibitor project, biochemical, uHTS, fluorescence polarization; eIF4H fluorescence polarization binding assay; Eukaryotic translation initiation factor 4H (Homo sapiens), Q15056; AID 2012, 2009; hit rate 0.94% among 290,000; inhibition, % at 35 µM;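 active = 50% or more with normal probe brightness, or confirmed in later tests; inconclusive = above 50% with abnormal brightness, or retests that disagree; inactive = below 50% or failed in later tests; about a fifth of its hits are not listed in these tables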;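 note: calls also rest on retests at 20 µM and on dose response follow-up; 0% = protein and probe with vehicle and 100% = probe without protein; strong numbers were not always called active; many hits fall short of the cut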
eIF4H FP inh retest = further read-out of eIF4H FP inh, marked with its call; inhibition, %; compound at 20 µM; confirmation average;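 mean of two retest wells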
PABP FP inh retest = second read-out of PABP FP inh, no call of its own (marks repeat the call); inhibition, %; compound at 20 µM; confirmation repeats;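 mean of two retest wells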
MT1-MMP act inh RFP = further read-out of MT1-MMP act inh, marked with its call; RFP signal change, %; measured here: RFP expression control read;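 0 = vehicle wells; hits needed this value within 50% of zero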
An asterisk follows results filed as active; i = inactive; ? = inconclusive; nt = not tested or not shown; & = joins results of further samples.

The opening 2 entries, ahead of the listing:
SMILES	MT1-MMP act inh	MT1-MMP act inh RFP	UUG fidelity	CSC inhib	Rce1 inhib	HIV Env fusion	PABP FP inh	eIF4H FP inh	others
CCOC(=O)C(C)c1nc2ccccc2[nH]c1=O (centres undefined)	1.2	1.9	0.7	-6.6	i	23.6	-9.1	2.0
COc1ccccc1-c1nnc(NC(=O)c2ccccc2F)o1	3.6	4.6	-28.7	2.1	i	25.2	-2.9	-20.6

The whole of this part, from the first entry:
SMILES	MT1-MMP act inh	MT1-MMP act inh RFP	UUG fidelity	CSC inhib	Rce1 inhib	HIV Env fusion	PABP FP inh	eIF4H FP inh	others
CCOC(=O)C(C)c1nc2ccccc2[nH]c1=O (centres undefined)	1.2	1.9	0.7	-6.6	i	23.6	-9.1	2.0
COc1ccccc1-c1nnc(NC(=O)c2ccccc2F)o1	3.6	4.6	-28.7	2.1	i	25.2	-2.9	-20.6
CCCCN1C(=O)C2ON(c3ccccc3C)C(c3ccco3)C2C1=O (centres undefined)	-1.6	-4.3	2.7	-6.8	i	nt	0.9	-1.2
O/N=C(/CCc1ccccc1)C1(O)CCCCC1	1.8	-4.7	-16.5	-16.0	i	nt	1.0	-2.2
COc1ccc(C2=NOC(C(=O)Nc3ccc4c(c3)OCCO4)C2)cc1OC (centres undefined)	1.0	-3.5	-8.6	-3.1	i	16.9	4.6	-7.3
CC(C)Cn1c(=S)[nH]c2cc(Cl)ccc21	-3.2	-0.6	-25.1	28.9	i	4.6	-2.3	-8.4
Cc1cc(Cl)ccc1OC(C)C(=O)NC(C)C1CCCO1 (centres undefined)	-3.0	7.2	-28.5	0.9	i	20.1	4.0	4.5
CN1C(=O)C(C)(C)c2cc(S(=O)(=O)N3CCCC(C(=O)NCc4ccc(F)cc4)C3)ccc21 (centres undefined)	-5.7	-9.9	1.4	-12.2	i	-23.4	-0.1	-2.5
CCS(=O)(=O)N1Cc2ccccc2CC1C(=O)Nc1ccc(OC)c(OC)c1 (centres undefined)	-1.7	1.4	5.7	-2.8	i	-31.4	-6.2	-5.2
CCNC(=O)CN(c1ccccc1)S(=O)(=O)c1ccc(Cl)cc1	-2.3	1.4	-25.9	nt	i	nt	-5.7	-7.4
Cc1cccn2c(=O)c3cc(C(=O)NC(C)c4ccccc4)c(=N)n(CCCn4ccnc4)c3nc12 (centres undefined)	5.6	-2.8	nt	-0.6	nt	2.5	8.3	-5.0
CC(=O)N1CCN(C(=O)c2cc(=O)c3ccccc3o2)CC1	-2.1	-1.0	-11.6	-6.4	i	2.6	2.9	9.0
COc1ccc(OCc2cc(C(=O)NC3Cc4ccccc4C3)no2)c(Cl)c1	-5.4	-8.5	-11.2	36.7	i	-32.4	-7.5	-3.8
CCC(C)N(C(=O)c1csnn1)C(C(=O)NC(C)(C)C)c1ccccc1 (centres undefined)	-11.0	1.3	-12.7	-16.2	i	13.1	-6.7	-3.4
COC(=O)c1cc(Br)c(=O)n(CCc2ccccc2)c1	1.5	3.6	nt	-3.5	i	nt	-2.9	2.9
COc1ccccc1NC(=O)c1ccc(COc2ccccc2OC)cc1	-0.6	2.8	nt	5.0	i	-9.8	nt	nt
COC(=O)c1ccccc1NC(=O)c1cc2ncc(Br)cn2n1	3.7	-2.5	-10.3	-10.5	nt	nt	9.8	37.1
CCn1c(CNC(=O)c2cccc(C)c2)nnc1SCC(=O)NC1CCCCC1C (centres undefined)	1.8	5.9	-13.2	-4.5	i	nt	-4.3	-10.4
Cc1cc(C(=O)NC2CC(C)(C)Cc3c2cnn3-c2ccccc2C)c(C)o1 (centres undefined)	-1.6	-2.7	-17.6	0.1	i	-19.2	3.6	7.4
CCOc1ccc(C(=O)CN2C(=O)NC3(CCCc4ccccc43)C2=O)cc1 (centres undefined)	5.1	1.4	-22.1	nt	nt	18.3	nt	nt
CC(C)c1ccc(NC(=O)[C@@H]2CCC(=O)N2C2OC(=O)c3ccccc32)cc1 (some centres undefined)	4.1	5.2	-5.8	-11.4	i	nt	-1.1	9.9
Cc1nc2ccccc2nc1N1CCCCC1	3.0	2.3	-6.4	nt	nt	nt	-6.4	-15.5
COc1cccc(/C=N/NC(=O)C(=O)NCc2cccnc2)c1	1.2	6.6	-7.8	4.2	i	-8.3	-5.2	-14.5
Cc1cccc(NC(=O)CN(C)S(=O)(=O)c2ccc3c(c2)n(C)c(=O)c(=O)n3C)c1C	-2.0	4.8	10.5	-5.6	i	9.1	1.4	-3.6
c1ccc(N2CCN(Cc3ccc4c(c3)OCO4)CC2)nc1	1.4	0.8	-11.0	-14.6	i	-8.6	nt	nt
Cc1cccc(C(=O)N2CCCCCC2)c1	5.7	4.2	-2.0	-24.9	i	nt	-1.8	-5.8
CCCC(=O)Nc1nc(-c2ccccc2)ns1	-1.6	-10.9	nt	22.5	i	-30.2	-5.9	-1.6
COc1cc(CN2CCNC(=O)C2CC(=O)NCc2csc(C(C)C)n2)cc(OC)c1 (centres undefined)	1.3	1.8	-15.5	-23.1	i	17.5	8.7	-6.3
COc1ccc(NC(=O)C2CCCN(S(=O)(=O)c3c(C)[nH]c(=O)[nH]c3=O)C2)cc1Cl (centres undefined)	-4.9	-11.3	nt	4.7	i	-2.5	12.3	6.0
CN(C)C(=O)c1cc(C(=O)c2ccccc2Cl)c[nH]1	3.9	0.7	nt	-5.9	i	14.5	-3.2	-14.4
Cc1ccc2cc(/C=N/NC(=O)c3ccccc3O)c(Cl)nc2c1	4.2	4.1	-3.0	-4.1	i	nt	0.1	-1.1
CCN(CC)c1ccc(NC(=O)CSc2n[nH]c(-c3ccco3)n2)cc1	-2.2	10.8	-2.8	-6.8	i	-5.3	nt	nt
COc1cccc(NC(=O)Nc2cccn(Cc3ccccc3)c2=O)c1	-20.1	-29.1	6.2	-1.6	i	-43.6	5.9	-9.1
CSc1ccccc1Nc1ncnc(N)n1	-2.2	-0.8	nt	-8.0	nt	-4.5	-6.6	0.6
COc1ccccc1NC(=O)c1cnc(SCC(=O)NCC2CCCO2)n(C)c1=O (centres undefined)	-11.7	-0.5	2.5	-8.3	i	-11.1	nt	nt
O=C(NCc1ccccc1)c1onc(CSc2ccncc2)c1C(=O)NCc1ccccc1	-3.7	-5.8	-12.6	-4.0	i	-11.5	nt	nt
CC(C)(C)c1nnc(N/N=C/c2ccc(Br)cc2)n(N)c1=O	-45.6	-31.4	nt	12.2	i	-5.1	14.5	-2.5
O=C(CC1C(=O)NCCN1Cc1ccc(-c2ccccc2)cc1)NCc1ccccc1 (centres undefined)	-1.6	-5.6	18.8	5.4	i	-9.6	-1.8	-6.9
FC(F)(F)c1ccc(Cl)c(-n2c(-c3ccco3)n[nH]c2=S)c1	-0.1	3.2	-8.0	5.8	i	5.0	-1.3	-9.7
c1cc(-c2nnc3n2CCCCC3)ccn1	0.3	0.6	-1.3	-12.2	i	nt	6.4	0.7
CCCOc1cccc(C2/C(=C(/O)c3ccc(F)cc3)C(=O)C(=O)N2CCN(C)C)c1 (centres undefined)	-2.4	1.8	-10.1	3.0	i	-11.2	-12.9	-6.2
CCS(=O)(=O)CCSc1nc2ccccc2s1	-1.1	3.1	-9.8	-22.6	i	nt	-0.2	-8.3
CCOC(=O)CC1C(=O)NCCN1C(=S)NC(=O)c1ccccc1OC (centres undefined)	-1.7	0.1	2.9	-2.2	i	-0.8	-14.6	-6.4
O=C(c1cc(-c2ccc(F)cc2)nc2ccccc12)N1CCC1	3.1	-1.1	nt	-8.5	nt	3.3	nt	nt
Nc1ccc(SCCN2C(=O)c3ccccc3C2=O)cc1	4.9	-0.5	-13.9	-6.9	i	-110.2	-0.8	-13.6
CCC(=O)Oc1cccc(C(=O)Nc2ccc(-c3nnc(-c4ccco4)o3)cc2)c1	3.3	-5.7	nt	-1.8	i	nt	-2.9	-10.4
COC(=O)[C@@H]1C[C@@H]2CC[C@@H](O)C[C@@H]2N1Cc1ccccc1OS(=O)(=O)c1ccc(C)cc1	2.0	2.9	-5.2	2.2	i	-43.9	-9.7	27.0
CCOC(=O)[C@@H]1[C@H]2COc3ccccc3[C@@H]2N2C(=O)N(c3cccc(F)c3)C(=O)[C@]12C	-0.8	0.7	-5.2	4.5	i	25.7	nt	nt
CC(C)CNC(=O)CSc1nnc(-c2ccccn2)n1Cc1ccccc1	1.8	-0.9	-6.7	-19.5	i	nt	-3.2	-6.2
Cc1ccc(OCC(=O)NNC(=O)Cc2ccc(S(=O)(=O)N3CCOCC3)s2)cc1	-7.5	2.6	-10.0	12.5	i	10.6	nt	nt

More results
SMILES	MT1-MMP act inh	MT1-MMP act inh RFP	UUG fidelity	CSC inhib	Rce1 inhib	HIV Env fusion	PABP FP inh	eIF4H FP inh	others
CCCCNC(=O)c1sc2nc(C)cc(COC)c2c1-n1cccc1	-2.6	-0.7	-15.5	-2.8	i	-66.9	-3.2	6.6
CC(=O)Nc1cccc(-c2csc(C(C)(O)c3ccccc3)n2)c1 (centres undefined)	5.8	0.6	4.8	nt	nt	-8.7	nt	nt
COc1ccc(NC(C)=O)cc1NC(C)c1nc2sc(C)c(C)c2c(=O)[nH]1 (centres undefined)	-4.4	-3.7	nt	-10.9	i	-17.2	7.5	-2.3
CCC(C(=O)N/N=C(\C)c1cccnc1)c1ccccc1 (centres undefined)	-1.8	0.0	-13.1	-0.9	i	9.4	2.1	0.8
Cc1nn(C)c(C(=O)NC(=S)Nc2ccc([N+](=O)[O-])cc2)c1Cl	-0.1	-4.3	-12.4	nt	i	-7.1	3.1	-7.4
CCOC(=O)C1(C/C(C)=N/NC(N)=O)CC(C)(C)OC1=O (centres undefined)	2.6	9.8	-12.1	-10.2	i	-30.3	10.3	-5.4
Cc1nn2c(N)csc2nc1=O	nt	nt	nt	6.3	i	nt	63.1	41.7	eIF4H FP inh retest=28.3;PABP FP inh retest=41.2
COC(=O)c1cc(C(=O)OC)n(Cc2ccc(F)cc2)n1	0.8	3.8	-11.5	-6.7	i	-57.1	7.9	-1.7
OC(CN1CCCCC1)Cn1c2ccc(Cl)cc2c2cc(Cl)ccc21 (centres undefined)	-5.4	-5.4	5.9	?	i	3.0	-12.9	-5.5
Cc1ccc(NC(=O)COC(=O)CCc2c[nH]c3ccccc23)c(C)c1	0.3	2.1	-2.7	-17.8	nt	-3.0	nt	nt
C[C@H]1CN([C@@H](C)CO)C(=O)c2cc(Br)cnc2O[C@@H]1CN(C)C(=O)CN(C)C	3.8	1.2	-0.1&-2.4	nt	nt	21.9	nt	nt
Cc1ccc(C)n1-n1cnc2sc3c(c2c1=O)CCC3	2.7	8.0	nt	2.4	i	nt	-3.7	-6.6
CC(=O)Nc1cccc(NC(=O)COC(=O)CO/N=C(\C)c2ccc3c(c2)OCO3)c1	-4.2	1.3	9.5	-3.0	i	-10.5	-2.6	1.5
COC(=O)c1ccc(/C=N/NC(=O)CC(=O)NCc2cccnc2)cc1	-0.1	0.2	nt	-4.4	i	-2.8	6.1	-1.2

A portion of the library, so the mix of outcomes need not match the whole.
